CBX7 AlphaScr: inhibitors of human CBX7 binding to H3K27me3 peptide. normalised signal (fraction of DMSO) (test concentration not listed). AlphaScreen His6-CBX7 / biotin-H3K27me3 peptide binding; active compounds read low. AID 1224903. 66,000 compounds, 1.1% hits; in the data active = normalised signal below about 0.5;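 also: 100 nL library stock added to about 20 µL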
Target sequence (O95931 whole entry, looked up): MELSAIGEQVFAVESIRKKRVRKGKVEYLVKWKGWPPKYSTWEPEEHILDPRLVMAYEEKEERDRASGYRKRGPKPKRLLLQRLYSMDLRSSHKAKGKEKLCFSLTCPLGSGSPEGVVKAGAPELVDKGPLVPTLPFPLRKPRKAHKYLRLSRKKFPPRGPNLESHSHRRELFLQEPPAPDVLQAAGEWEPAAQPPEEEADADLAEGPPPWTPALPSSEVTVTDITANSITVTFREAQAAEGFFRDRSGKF
CBX7 AlphaScr z-score: further read-out of CBX7 AlphaScr, marked with its call; z-score; measured here: z-score of CBX7 signal; some inactives read as strong as hits; reference of the scale not given here;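 same signal on another scale; lower means less binding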
Numbers without * were called inactive; & = joins results of further samples. This is a subset; count on the stated rates, not on these rows.

SMILES	CBX7 AlphaScr	CBX7 AlphaScr z-score
CCOC(=O)N1CCC(Nc2c(N(Cc3ccccc3)C(C)C)c(=O)c2=O)CC1	0.94	-0.66
Cc1c(C(=O)NCCc2ccc(Cl)cc2)oc2ccc(S(=O)(=O)N3CCC(C)CC3)cc12	1.1	1.3
COCCNC(=O)c1ccc2c(c1)N(Cc1ccccc1)C(=O)CS2=O (stereo not drawn)	1	0.34
COc1ccc(CNC(=O)C2CCCN(Cc3nc(-c4ccc(Cl)cc4)oc3C)C2)cc1 (stereo not drawn)	1	0.64
CC1CCN(c2nc3ccc(C(=O)N4CCc5ccccc5C4)cc3s2)CC1	1.1	1.2
COc1ccc(OC)c(CN2CCN(Cc3cc(OC)c(OC)cc3OC)CC2)c1	0.81	-3.3
CC(=O)N1CCc2cc(S(=O)(=O)NC(CC(C)C)C(=O)NCCc3cccc(C)c3)ccc21 (stereo not drawn)	1	0.81
O=C(CN1C(=O)CSc2ncccc21)N1CCCCCC1	1.1	2.6
O=C(NCc1cccc(Br)c1)c1ccc2nc(N3CCOCC3)sc2c1	1	1.4
CCN1C(=O)c2ccccc2S(=O)c2ccc(C(=O)NCCCN3CCCC3=O)cc21 (stereo not drawn)	0.99	-0.14
COc1ccc(NC(=O)CNC(=O)Cn2cnc3sc4c(c3c2=O)CCCC4)c(OC)c1	0.99	-0.23
CC(=O)N1c2ccc(S(=O)(=O)N(C)c3ccc(Br)cc3)cc2CC1C (stereo not drawn)	1	0.16
COc1ccc(N2CCN(C(=O)c3cn(CC(C)C)c(=O)c4cc(OC)c(OC)cc34)CC2)cc1	1	-0.15
Cc1ccc(CNC(=O)CCN2N=C(c3ccc(C)cc3)CCC2=O)cc1	1	0.24
Cc1ccc(S(=O)(=O)CCC(=O)NCCCN2CCN(c3cccc(Cl)c3)CC2)cc1	1	0.9
CCCn1c(CCNC(=O)c2cccs2)nc2ccccc21	1	0.058
COc1ccc(-n2nnnc2SCC(=O)Nc2ccc(F)c(F)c2)cc1	0.94	-0.088
O=c1[nH]c(-c2ccc(OCc3cccc4ccccc34)cc2)nc2sc3c(c12)CCCC3	1.1	0.89
CCOc1cc2c(cc1OCC)C(c1ccc(C(=O)OC)cc1)NCC2 (stereo not drawn)	0.97	-0.28
Cn1nc(-c2ccccc2F)c2cc(C(=O)NCc3cccnc3)sc21	0.88	-1.9

Record cards (already shown). Values in the order: CBX7 AlphaScr | CBX7 AlphaScr z-score
Record of Cc1ccc(S(=O)(=O)CCC(=O)NCCCN2CCN(c3cccc(Cl)c3)CC2)cc1 : 1 | 0.9
Record of CCCn1c(CCNC(=O)c2cccs2)nc2ccccc21 : 1 | 0.058

Other compounds:
SMILES	CBX7 AlphaScr	CBX7 AlphaScr z-score
Cc1ccsc1-c1nc(CSCC(=O)NCc2ccccc2)c(C)o1	0.96	-0.73
CCN(CC)c1ccc(Nc2nc(-c3c(C)nc4sccn34)cs2)cc1	0.1*	-18*
Cc1cc(C)cc(-c2nc(-c3ccncc3)no2)c1	1.1	2
CCCCCCCC1C(O)CC(c2ccc(OC)cc2)NC1c1ccc(OC)cc1 (stereo not drawn)	0.98	-0.64
CCOc1ccc(NC(=O)CC2C(=O)N(c3ccc(F)cc3)C(=O)N2Cc2ccc(F)cc2)cc1 (stereo not drawn)	1	1.8
COc1ccc(-n2c(Cc3cc(=O)[nH]c(=O)[nH]3)nnc2SCc2ccc(F)cc2)cc1	0.96	-1
Cc1nc2c(-c3ccccc3)c(C)nn2c(C)c1CCC(=O)NCc1cccnc1	1.2	2
COc1ccc(NC(=O)c2cc(-c3ccc(Cl)c(Cl)c3)on2)c(OC)c1	1	0.89
Cn1c2ccccc2c2c(C(=O)NCCCN3CCOCC3)cn(C3CCCCC3)c(=O)c21	1.1	1.4
Cc1ccc(NC(=O)COc2nsnc2N2CCOCC2)cc1Cl	1	0.2

Ordered by heavy-atom count (smallest number first): seven of the compounds above.
SMILES	CBX7 AlphaScr	CBX7 AlphaScr z-score
Cc1cc(C)cc(-c2nc(-c3ccncc3)no2)c1	1.1	2
Cc1ccc(NC(=O)COc2nsnc2N2CCOCC2)cc1Cl	1	0.2
Cc1ccsc1-c1nc(CSCC(=O)NCc2ccccc2)c(C)o1	0.96	-0.73
COc1ccc(NC(=O)c2cc(-c3ccc(Cl)c(Cl)c3)on2)c(OC)c1	1	0.89
Cc1nc2c(-c3ccccc3)c(C)nn2c(C)c1CCC(=O)NCc1cccnc1	1.2	2
Cn1c2ccccc2c2c(C(=O)NCCCN3CCOCC3)cn(C3CCCCC3)c(=O)c21	1.1	1.4
CCOc1ccc(NC(=O)CC2C(=O)N(c3ccc(F)cc3)C(=O)N2Cc2ccc(F)cc2)cc1 (stereo not drawn)	1	1.8

More structures:
SMILES	CBX7 AlphaScr	CBX7 AlphaScr z-score
CCc1c(C)nc2cc(-c3ccccc3)[nH]n2c1=O	1&1.1	0.52&0.96
O=C(Cc1ccccc1)Nc1cc(-c2nc3ncccc3o2)ccc1Cl	1	0.91
Cc1ccc(-n2c(=O)cc(N3CCC(Cc4ccccc4)CC3)[nH]c2=O)cc1	1.1	2
CCn1cc(C(=O)NCC2CCCO2)c2cc(OC)c(OC)cc2c1=O (stereo not drawn)	0.99	-0.18
COc1ccc(CCNC(=O)c2cn(-c3ccc(Cl)cc3)c(=O)c3ccccc23)cc1OC	1	0.92
O=C(Cc1ccc(Cl)cc1)Nc1ccc2oc(-c3ccncc3)nc2c1	1.1	1.6
CC1CCN(C(=O)c2ccc(CSc3nc4ccncc4n3Cc3ccc(F)cc3)cc2)CC1	1.1	2.4
CC(C(=O)NCc1cccnc1)N1C(=O)COc2ccc(Cl)cc21 (stereo not drawn)	0.92	-0.076
CCOC(=O)c1ccc(NC(=O)c2c(-c3ccccc3)noc2C)cc1	1.2	2.5
O=C1CC(Cc2ccc(Cl)cc2)C(=O)N1c1ccccc1 (stereo not drawn)	1.1	0.43
Cc1c(C(=O)NCc2ccccn2)sc2ncn(CC(=O)Nc3cccc(C(F)(F)F)c3)c(=O)c12	0.97	-1
CC1CCN(c2nc(-c3ccccc3)cs2)CC1	1.1	2.9
O=C1CC(N2CCN(c3ccccc3F)CC2)C(=O)N1c1cccc(Br)c1 (stereo not drawn)	1	0.2
COc1ccc(Nc2cc(C(=O)NCCCN(C)C3CCCCC3)c3ccccc3n2)c(OC)c1	0.64	-5.5
Cc1ccc(-c2csc(NC(=O)C(C(C)C)N3C(=O)c4ccccc4C3=O)n2)cc1 (stereo not drawn)	0.77	-4.8
CCn1cc(C(=O)NCCCN2CC(C)CC(C)C2)c2cc(OC)c(OC)cc2c1=O (stereo not drawn)	1	-0.00081
Cc1ccccc1OCC(=O)Nc1nnc(-c2ccncc2)s1	1.1	0.34
COc1cccc(CNS(=O)(=O)c2ccc3c(c2)CC(C)N3C(C)=O)c1 (stereo not drawn)	1.1	2.4
FC(F)Oc1ccc(C2CC(c3ccco3)=Nc3ccccc3S2)cc1 (stereo not drawn)	0.6	-6.2
COc1cccc(NC(=O)CSc2nc3nc(C)c(Cc4ccccc4Cl)c(C)n3n2)c1	1.2	1.9
O=C(Nc1ccc2oc(-c3cccc4ccccc34)nc2c1)c1ccc(Cl)cc1	1.4	2.8
CCN(CC)S(=O)(=O)c1ccc(C(=O)Nc2ncn(Cc3ccccc3)n2)cc1	0.87	-0.15
COc1ccc(NC(=O)CSc2nc3ccccc3nc2Cc2ccc(F)cc2)c(OC)c1	1.1	1.4
CCOc1cccc2sc(NC(=O)c3ccc(S(=O)(=O)N4CCC(C)CC4)cc3)nc12	1.1	1.6
CCN(CC)CCCNC(=O)c1cc2c(s1)-c1ccccc1OC2	1.1	3.1
Cc1ccc(NS(=O)(=O)c2ccc3c(c2)CCN3C(=O)C2CC2)cc1C	0.95	-1.4
Cc1c(C(=O)Nc2ccccc2Br)oc2ccc(S(=O)(=O)N3CCCCCC3)cc12	1	0.3
CCC(=O)Nc1nc(C)c(-c2csc(Nc3cc(C)ccn3)n2)s1	1	0.034
O=C(c1ccc2c(=O)n3c(nc2c1)CCCCC3)N1CCOCC1	0.96	-0.074
CCOc1ccc(-c2nnc(NC(=O)c3ccccc3Br)s2)cc1	1	0.5
COc1ccc(C(=O)N2CC(=O)Nc3ccc(C)cc3C2c2ccc(F)cc2)c(OC)c1 (stereo not drawn)	0.3*	-6.7*
Cc1nc2cc(C(=O)NCCc3ccccc3)ccc2n1-c1ccc(F)c(F)c1	1	0.3
COc1ccc(OC)c(CCNC(=O)c2ccc3c(c2)N(Cc2ccccc2)CCS3)c1	0.67	-0.44
Cc1ccc(CSc2nc3ccncc3n2CC(=O)Nc2ccc(C)cc2C)cc1	0.81	-0.77
Cc1noc(C)c1S(=O)(=O)N1CCCC(C(=O)NCc2ccc(Cl)cc2)C1 (stereo not drawn)	1.1	1.5
CNc1nc(OCC(F)(F)F)nc(N2CCCC[C@H]2c2cccnc2)n1	1.1	0.74
Cc1ccc2nsnc2c1NC(=O)c1sc2ccccc2c1Cl	1	0.27
CC(C)(C)c1ccc(OCc2nc(-c3ccccc3)no2)cc1	1	0.18
O=C(Nc1cccs1)Nc1cccc2ccccc12	1	0.64
CC(C)c1ccc(-n2cnc3cc(C(=O)NC4CCCC4)ccc32)cc1	0.94	-0.6

Sorted by value in CBX7 AlphaScr z-score (highest first): some entries from above
mol	CBX7 AlphaScr z-score
Cc1noc(C)c1S(=O)(=O)N1CCCC(C(=O)NCc2ccc(Cl)cc2)C1 (stereo not drawn)	1.5
O=C(Nc1cccs1)Nc1cccc2ccccc12	0.64
Cc1nc2cc(C(=O)NCCc3ccccc3)ccc2n1-c1ccc(F)c(F)c1	0.3
CC(C)(C)c1ccc(OCc2nc(-c3ccccc3)no2)cc1	0.18
COc1ccc(OC)c(CCNC(=O)c2ccc3c(c2)N(Cc2ccccc2)CCS3)c1	-0.44

Following part:
SMILES	CBX7 AlphaScr	CBX7 AlphaScr z-score
COc1cc2c(c(OC)c1)C(c1ccc(Cl)cc1Cl)CC(=O)N2 (stereo not drawn)	0.96	-0.053
CCOC(=O)c1c(CN2CCCCC2)n(C)c2cc(Br)c(O)cc12	1	-0.012
CCc1cccc(C)c1Nc1cc(C)nc2nc(C)nn12	1	0.42
CCOP(=O)(OCC)c1nc(-c2ccc(Cl)cc2Cl)oc1N(C)C	1.1	1.6
CC(=O)C12c3ccccc3C(c3ccccc31)C1C(=O)NC(=O)C12 (stereo not drawn)	0.78	-2.7
O=C1CC(c2nc3ccccc3n2Cc2ccc(Cl)cc2)CN1c1ccccc1 (stereo not drawn)	0.98	-0.18
Cc1ccccc1-c1nnc(NC(=O)COc2ccccc2F)s1	1.2	0.66
COc1ccc(-n2nnnc2SCC(=O)NCCc2ccccc2)cc1	0.97	-0.79
CCc1nnc(NC(=O)c2cc(Cl)ccc2Cl)s1	1.1	0.24
COc1ccc(C(=O)Nc2ccc3nc4n(c(=O)c3c2)CCCCC4)cc1OC	1	0.29
COc1ccc(Nc2nnc(-c3ccc(N4CCOCC4)c([N+](=O)[O-])c3)c3ccccc23)cc1	0.67	-1.6
COc1ccc(-c2nc(-c3ccc(C(F)(F)F)cc3)no2)cc1	1.1	2.7
COc1ccccc1-c1cc(C(=O)Nc2cc(C)nn2-c2ccccc2)no1	1	-0.0098
Cc1ccc(N2C(=O)c3ccccc3C2Nc2ccc(C)c(Cl)c2)nc1 (stereo not drawn)	0.77	-3.1
O=C(CSCc1ccccc1)Nc1nnc(Cc2ccc(F)cc2)s1	1	0.83
CCN(CC)C(=O)CN1C(=O)CC(C)(C)Sc2ccccc21	1	0.97
Cc1onc(-c2ccccc2Cl)c1C(=O)NCCCCc1ccccc1	0.94	-0.89
CC(=O)c1ccc(N2C(=O)C3C4CC(=O)C(c5ccccc54)C3C2=O)cc1 (stereo not drawn)	1.1	0.68
COc1nnc(-c2ccc(N3CCCCC3)c(NC(=O)c3cccs3)c2)c2ccccc12	0.92	-2.3
CC(=O)Nc1ccc(S(=O)(=O)NCCc2cc3ccc(C)cc3[nH]c2=O)cc1	1.2	1.7
CC(C)n1c(C(O)c2ccc(OCc3ccccc3)cc2)nc2ccccc21 (stereo not drawn)	0.87&0.84	-2.2&-3.6
CCOC(=O)C1CCCN(C(=O)c2cc3c(-c4ccccc4F)nn(C)c3s2)C1 (stereo not drawn)	0.98	-0.33
CC(NCCCN(C)C)c1cc(C(C)(C)C)cc2c1CCC2(C)C (stereo not drawn)	1	0.93
COc1ccc(NC(=O)CN(C)S(=O)(=O)c2ccc3nc(C)sc3c2)cc1Cl	1.1	0.73
O=C(O)c1nn2c(C(F)(F)F)cc(-c3ccc(Cl)c(Cl)c3)nc2c1Br	1	0.12
Clc1ccc(-c2nc3ncccn3c2NC2CCCC2)cc1	1.1	2.2
CCC(=O)Nc1nonc1-c1nc2ccccc2n1C	1	0.12
CC1CCc2c(sc3ncnc(N4CCN(c5ccccc5)CC4)c23)C1 (stereo not drawn)	0.78	-0.46
O=C(CCCn1c(=O)[nH]c2cc(Cl)ccc2c1=O)NC1CCN(Cc2ccccc2)CC1	1	-0.13
Cn1c2ccccc2c2c(C(=O)NCc3cccs3)cn(C3CCCC3)c(=O)c21	0.99	-0.23
CN(CCCNC(=O)CN1C(=O)CCSc2ccccc21)Cc1ccccc1	0.97	-1.4
CCCCNC(=O)CN1C(=O)COc2ccc(S(=O)(=O)N(CC)CC)cc21	1.2	2.6
CCN(CCNS(=O)(=O)c1ccc2c(c1)CCN2C(=O)C1CC1)c1ccccc1	0.93	-2
CCCN1Cc2cccc(C(=O)Nc3ccc(S(=O)(=O)N(CC)CC)cc3)c2C1=O	0.99	-0.07
CC(Cc1ccccc1)NC(=O)CN1C(=O)c2ccccc2S1(=O)=O (stereo not drawn)	1.3	3.2
CCCc1cc(=O)[nH]c(Nc2nc(-c3ccccc3)c3cc(Cl)ccc3n2)n1	0.83	-2.1
CC1CCC(NC(=O)CN2CCN(Cc3cccc(Cl)c3)C2=O)CC1 (stereo not drawn)	0.85	-2.8
CCc1ccc2c(c1)c(=O)c(S(=O)(=O)c1ccccc1)cn2CC(=O)Nc1cccc(OC)c1	0.98	-0.63
CCN(CC)c1ccc(NC(=O)C2=CCN(S(=O)(=O)c3ccc(F)cc3)CC2)c(C)c1	0.67	-6.2
O=C(NCCc1ccccc1)c1cc(-c2cccc(Cl)c2)on1	1	0.51

High-throughput results (PubChem)
